Compound activity from PubChem BioAssay.
Mtb MbtI inh = MbtI salicylate synthase inhibition; P9WFX0; purified MbtI enzyme, fluorescence intensity read-out; inhibition, %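 (about 17 µg/mL by stock and volumes)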; 100,000 compounds, 0.89% hits;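 active = above 50% in both replicates, above 80% if mildly self-fluorescent; inactive = the rest, strongly fluorescent compounds included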;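 note: 0% = mean of negative and 100% = mean of positive controls; one replicate is shown; some compounds called inactive have numbers as strong as hits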
Target sequence (P9WFX0 whole entry, looked up): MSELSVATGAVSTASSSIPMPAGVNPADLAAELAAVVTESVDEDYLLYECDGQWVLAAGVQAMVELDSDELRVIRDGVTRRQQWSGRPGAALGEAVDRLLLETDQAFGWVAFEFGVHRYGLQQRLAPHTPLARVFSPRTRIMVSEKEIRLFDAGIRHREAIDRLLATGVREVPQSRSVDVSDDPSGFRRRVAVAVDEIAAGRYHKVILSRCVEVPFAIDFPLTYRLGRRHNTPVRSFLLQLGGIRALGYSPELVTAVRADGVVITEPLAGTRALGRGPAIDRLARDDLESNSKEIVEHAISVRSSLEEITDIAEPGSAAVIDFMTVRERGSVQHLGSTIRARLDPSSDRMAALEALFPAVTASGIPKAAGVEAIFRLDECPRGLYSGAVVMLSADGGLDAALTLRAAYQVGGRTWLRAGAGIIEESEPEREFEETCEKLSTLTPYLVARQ
An asterisk follows results filed as active. An excerpt (hit frequency here may not be typical).

SMILES	Mtb MbtI inh
CCN(CC)c1ccc2cc(NC(=O)CCC(=O)O)c(=O)oc2c1	-6
C1CCC(N2CCC(N3CCOCC3)CC2)CC1	-10
O=C(c1oc2ccccc2c1-n1cccc1)C1CC1	2
O=C(O)CN(CC(=O)O)S(=O)(=O)c1ccccc1	-12
O=c1[nH]c2c(c(=O)n1Cc1ccccc1)CCC2	-4
Nc1nc(SCc2cnc(-c3ccccc3)o2)nc2nc[nH]c12	26
Cc1ccc2[nH]c3c(c2c1)C[N+](C)(Cc1ccccc1)CC3 (stereo not given)	6
O=C(O)COc1ccc(-c2nc3ccccc3s2)cc1	87
CSc1sc2c(N)nc(N)nc2c1C#N	1
O=C(CC1CCS(=O)(=O)C1)NC1CCCCC1 (stereo not given)	-10
COc1cc2c(cc1OC)C(COc1ccc(F)cc1)N(C(=S)Nc1cccc(C)c1C)CC2 (stereo not given)	-12
CCN(Cc1ccccc1)C(=O)CSc1nc2nc(C)c(Cc3ccccc3Cl)c(C)n2n1	-4
CCC1(C)OC(=O)N(c2ccc(C)cc2)C1(C)O (stereo not given)	-15
O=C(Nc1cccc(O)c1)c1cccc(S(=O)(=O)N2CCCCC2)c1	-5
COCC(=O)c1[nH]c2ccccc2c1C	18
CCCCN(C)C(=S)Nc1ccc2nc3n(c(=O)c2c1)CCCCC3	2
CCCCn1c(=O)oc2ccc(C)cc21	-9
O=C(O)C1CC(=O)N(CCOc2ccccc2)C1 (stereo not given)	4
COC(=O)c1nnn(CC(=O)Nc2ccccc2)c1N	-20
CCc1nc(C)ccc1OCC(N)=O	-2
O=C(O)CC1(CC(=O)O)CCCC1	-11
COc1ccc2c(c1)CCc1c-2n[nH]c1C(=O)O	-116
O/N=C(\c1ccccc1)c1nonc1/C(=N/O)c1ccccc1	-8
CC(C)(O)C#CC(O)c1cccs1 (stereo not given)	-3

Reformatted with bars between the fields: part of the list above.
SMILES | Mtb MbtI inh
COCC(=O)c1[nH]c2ccccc2c1C | 18
CCCCN(C)C(=S)Nc1ccc2nc3n(c(=O)c2c1)CCCCC3 | 2
CCCCn1c(=O)oc2ccc(C)cc21 | -9
O=C(O)C1CC(=O)N(CCOc2ccccc2)C1 (stereo not given) | 4
COC(=O)c1nnn(CC(=O)Nc2ccccc2)c1N | -20
CCc1nc(C)ccc1OCC(N)=O | -2
O=C(O)CC1(CC(=O)O)CCCC1 | -11
COc1ccc2c(c1)CCc1c-2n[nH]c1C(=O)O | -116

Following part:
SMILES	Mtb MbtI inh
Nc1c(C(=O)O)nnn1Cc1ccccc1	-18
COc1ccccc1N1CCN(C2CCN(C3CCCCC3)CC2)CC1	-15
CCOC(=O)c1cccc(NC(=O)C(CC(C)C)NC(=O)C2CCCCC2)c1 (stereo not given)	-16
O=C(CN1C(=O)c2ccccc2C1=O)Nc1ccccc1	-5
N#CC(C#N)C(C#N)(C#N)CC(=O)C1CC2C=CC1C2 (stereo not given)	13
CCCN1CCCc2ccccc21	4
Cc1nnc(NN2CCOCC2)[nH]c1=O	-4
Cc1ccccc1N1C(=O)c2ccccc2C1=O	-14
CC1CC(C)CN(C(=O)CSc2nc3c(c(=O)[nH]2)CCC3)C1 (stereo not given)	9
COc1ccc(-c2csc(Nc3ncccn3)n2)cc1	0
CC(C)NC(=O)CC1OC(=O)c2ccccc21 (stereo not given)	-15
CCSc1nc2c(c(=O)[nH]1)C(c1ccccc1)C1=C(CCCC1=O)N2 (stereo not given)	47
C/C(=C\c1nsc(Nc2ccccc2)n1)NCCc1ccccc1	-4
CC(=O)n1nc(-c2ccc(Cl)cc2)nc1NCc1ccco1	-9
O=C(CN1C(=O)c2ccccc2S1(=O)=O)N1CCOCC1	-12
Cc1ccc(NC(=O)C2CCN(Cc3cnn(-c4ccccc4)c3-n3cccc3)CC2)cc1	-19
Cc1ccc(C)n1-c1ccc(CC(=O)O)cc1	23
O=C(O)CC(c1ccccc1)c1cc(Br)ccc1O (stereo not given)	-8
Cc1ccc(OCC(=O)NCCO)c(C)c1	-19
N#CC1(C(=O)O)CC2c3ccccc3C1c1ccccc12 (stereo not given)	-7
Cc1nnc(SCc2cc(=O)oc3cc(O)ccc23)s1	-9
CC(=O)Oc1ccccc1C(=O)OCC(=O)c1ccc(OCc2ccccc2)cc1	2
N#Cc1ccccc1NCc1ccccc1	-78
OCn1nc(-c2ccccc2Br)oc1=S	17
COC(=O)Cc1cc(=O)oc2cc(O)ccc12	95
Cc1oc2c(c1C(=O)N1CCCCC1)C(=O)c1ccccc1C2=O	-5
CCC(CO)NCC(O)CN1c2ccccc2Sc2ccccc21 (stereo not given)	-2
Cc1cc(=O)[nH]c(SCc2nc3ccccc3n2C)n1	-6
COC(=O)COc1ccc(Br)cc1	-10
O=C(O)CCSc1nc2ccccc2n1-c1ccccc1	-10
CCn1c2ccccc2c2nnc(SCC(=O)Nc3ccc(S(N)(=O)=O)cc3)nc21	0
COc1ccc(C2C(C(=O)N3CC(C)CC(C)C3)c3ccccc3C(=O)N2c2ccc(OC)cc2)cc1 (stereo not given)	6
CCCCN(C)Cc1c(O)ccc2c(=O)c(-c3ccccc3OC)coc12	90
CC(C)C1CC(=O)C=C2CCCCC21 (stereo not given)	-5
Cc1ccccc1N1C(=O)C(Oc2ccc(Cl)cc2)C1CNCC1CCCO1 (stereo not given)	-18
COc1ccc(CN(C(=O)CN2C(=O)c3ccccc3S2(=O)=O)c2ccccc2O)cc1	-18

Exported with bars between the fields: entries from further up
SMILES | Mtb MbtI inh
CCCCn1c(=O)oc2ccc(C)cc21 | -9
O=C(CN1C(=O)c2ccccc2C1=O)Nc1ccccc1 | -5
Cc1nnc(NN2CCOCC2)[nH]c1=O | -4
COc1cc2c(cc1OC)C(COc1ccc(F)cc1)N(C(=S)Nc1cccc(C)c1C)CC2 (stereo not given) | -12

(listing goes on)
SMILES	Mtb MbtI inh
O=c1c2c(nc3c(-c4ccccc4)c[nH]n13)CCCC2	5
O=C(O)C1C2C=CC(C2)C1C(=O)N1CCc2ccccc2C1 (stereo not given)	0
CC1(C)CC(CCC(=O)Nc2ccccc2Cl)C(=O)O1 (stereo not given)	-9
O=C1CN(C(=O)c2ccccc2)C(c2ccccc2)c2cc(F)ccc2N1 (stereo not given)	-1
O=C(O)CCC(=O)Nc1cccc(-c2nc3ccccc3o2)c1	-40
NS(=O)(=O)c1ccc(NC(=O)COC(=O)CN2C(=O)CCC2=O)cc1	-17
O=C(NCCN1CCCCCC1)c1csc2c1CCCC2	-14
Cc1cc(C)c2c(=O)[nH]n(C3CCCCCC3)c2n1	-7
Nc1ccc(Sc2ccc(N3C(=O)c4ccc(N)cc4C3=O)cc2)cc1	-13
COc1ccc(-c2n[nH]n3c2nc(=O)c2ccccc23)cc1	-1
CCC1COC(c2cccs2)=N1 (stereo not given)	-4
O=c1[nH]nc(-c2ccc(Cl)cc2)c2ccccc12	-13
CCN(Cc1c(C#N)c2ccccc2n1C)c1ccccc1	-5
CC12CN(S(=O)(=O)c3ccccc3)CC(C)(CN(S(=O)(=O)c3ccccc3)C1)C2	-3
CNc1c(C)n(C)n(-c2ccccc2)c1=O	-10
CC(C(=O)N1c2ccccc2Sc2ccccc21)N1C(=O)c2ccccc2C1=O (stereo not given)	-3
COc1ccc(OC)c(S(=O)(=O)N2CC(C)OC(C)C2)c1 (stereo not given)	19
O=C(O)C1CN=C(c2ccccc2)N1 (stereo not given)	-3
c1ccc2sc(SCCCN3CCCCC3)nc2c1	-2
COc1ccc(OC)c(NC(=O)C2CCCN2C(=O)C2CCC(C)CC2)c1 (stereo not given)	-7
C=CCn1c(NCc2ccc3c(c2)OCO3)nc2ccccc21	-2
COC(=O)c1c[nH]n2c(=O)c3c(nc12)C(=O)N(Cc1ccccc1)C3	96
O=C(O)CCCC(=O)NC1=NCCS1	-13
Cc1cccc(N2C(=O)c3ccc(C(=O)Nc4ccccn4)cc3C2=O)c1	-10
COc1nc(-c2ccccc2)c2cc(C)ccc2n1	80
Oc1ccc(Cl)cc1C1=Nc2ncnn2C(c2ccccc2)C1 (stereo not given)	-9
O=c1[nH]snc1N1CCOCC1	2
Cc1ccc(Cn2ccc(NC(=O)C3C4CCC(C4)C3C(=O)O)n2)cc1 (stereo not given)	-15
COc1ccc(C(=O)N2CCC(C(=O)Nc3ccc(C)cc3)CC2)cc1	-18
CCN1C(=O)c2ccc(C(=O)Nc3cc(OC)c(OC)cc3C(=O)O)cc2C1=O	-15
COc1ccc(-c2csc3ncnc(Cl)c23)cc1	-2
Cc1ccc2c(c1)c1c(n2CCC#N)CC[N+](C)(C)C1	8
C=CCN1C(=O)CSc2ccc(C(=O)N3CCC(C)CC3)cc21	-10
CC(C)Cc1ccc(S(=O)(=O)N2CC(C)CC(C)C2)cc1 (stereo not given)	1
COc1ccc(-c2c(C(=O)O)c3cc(OC)c(OC)cc3c(=O)n2C)cc1O	0
Cc1oc(CC(C)C)cc1C(=O)Nc1ccccc1C(=O)O	-13
Cc1ccc2ncnc(NC(CC(C)C)C(=O)O)c2c1 (stereo not given)	-3
Cc1cccc(N2C(=O)C(Oc3ccc(Cl)cc3Cl)C2C(=O)O)c1C (stereo not given)	-6
N=c1n(CCO)c2ccccc2n1Cc1ccccc1	-7
CC(C)C1C(C#N)=C(N)SC(N)=C1C#N	44
CCOC(=O)c1sc2ncnc(N)c2c1C	5
COC(=O)C(C(=O)NCC1CCCO1)C1CCCC1 (stereo not given)	-10
CCc1cccc(C)c1NC(=O)COC(=O)C1CC(=O)N(c2ccc(Br)cc2)C1 (stereo not given)	-13
O=C(COc1ccccc1)N(Cc1ccco1)c1ccc(O)cc1	-18
CC12CCOC1N(Cc1ccccc1)c1ccccc12 (stereo not given)	-4
Cc1ccccc1NS(=O)(=O)c1ccc(-n2c(=O)n(C)n(C)c2=O)cc1	-7
CC(C)(C)OC(=O)N1CCC(c2cc(=O)n(-c3ccccc3)[nH]2)CC1	-14
CS(=O)(=O)c1ccc(Cl)c(S(C)(=O)=O)c1	-11
CC1(C)C=C(C(=O)N2CCCCC2)C(C)(C)N1	-14
N#CCCS(=O)(=O)c1ccc(Cl)cc1	-9
O=C1C=C(NCCc2ccccc2)C2(CCCCC2)O1	-14
COc1ccc(CCNC(=O)C2NC(=O)CC2c2ccccc2)cc1OC (stereo not given)	-3
CC1(C)COC(c2ccccc2)=N1	-14
CC(C)C(=O)c1ccc(OCCOc2ccc(C#N)cc2)cc1	-9
CN(CCO)S(=O)(=O)c1ccc2c(c1)C(=O)c1cc(S(=O)(=O)N(C)CCO)ccc1-2	-8
COC(=O)COc1ccc(=O)n(-c2ccccc2)n1	-2
O=C(CCCN1C(=O)c2ccccc2C1=O)NCc1ccco1	0
CC1=NC(=O)C2C(=O)O/C(=C/c3ccc4c(c3)OCO4)C2=C1 (stereo not given)	23
CN(C(=O)c1ccc2c(=O)n3c(nc2c1)CCCCC3)C1CCCCC1	0
CC(=O)NC(C)Cc1cn(Cc2ccccc2)c2ccccc12 (stereo not given)	-10
Next part:
SMILES	Mtb MbtI inh
COc1ccccc1NS(=O)(=O)c1ccc(NC(=O)c2nc3ncccn3n2)cc1	-4
Nc1cc(=O)[nH]c2nnc(SCc3ccccc3)n12	-10
CCC1CCCCN1C(=O)Cc1cn(Cc2cccc(Cl)c2)c2ccccc12 (stereo not given)	-3
O=C(Nc1nccs1)Oc1ccccc1	-5
CCc1cc(=O)oc2cc(OCC(=O)OC)c(Cl)cc12	-72
Cc1ccc2nc(N3CCCC3)[nH]c2c1	2
CCCN(CC#Cc1ccccc1)CCC	-11
O=C(Nc1ccccc1)c1cc(S(=O)(=O)Nc2cccnc2)cs1	-1
COc1ccc2nc(SCC(=O)c3ccc4c(c3)OCO4)[nH]c2c1	16
COc1ccccc1-n1cc(-c2ccccc2)c2c(SCC(C)C)ncnc21	81
O=C1CCC(C(=O)O)C(Cc2ccccc2)C1 (stereo not given)	-10
O=C(NCc1ccccc1Cl)c1ccc(Cn2cc(Cl)cn2)cc1	-7
CC1(C)COC(Nc2ccccc2)=N1	-11
CC(NC(=O)C1CC1(C)C)c1ccccc1 (stereo not given)	8
COc1ncnc2c1sc1nc(N3CCOCC3)c3c(c12)CCCC3	-1
COC(=O)c1ccc(-n2ncnc2-c2cccc(Br)c2)cc1	-9
CCCc1cc(C(=O)O)n(C)n1	-4
COc1ccc(CCNC(=O)NC2(C(F)(F)F)Oc3ccccc3O2)cc1OC	-3
COc1cc(CNCc2ccc(C)cc2)cc(OC)c1	-7
CCOc1ccc(C(=O)Nc2cccc3nsnc23)cc1Br	-5
N#CCc1ncc(-c2cc3cc(Br)ccc3oc2=O)s1	-2
CC(C)CC(NC(=O)C1CCCCC1)C(=O)Nc1ccccc1F (stereo not given)	-9
CCC(C)(C(=O)NC1CCCC1)N(C(C)=O)c1ccc(C)cc1 (stereo not given)	0
COc1ccc(-c2nc3c(sc(=S)n3-c3ccccc3)c(=O)[nH]2)cc1	-8

Part of the list above in another layout:
> CC1(C)COC(c2ccccc2)=N1
  Mtb MbtI inh: -14
> CC(C)C(=O)c1ccc(OCCOc2ccc(C#N)cc2)cc1
  Mtb MbtI inh: -9
> CN(CCO)S(=O)(=O)c1ccc2c(c1)C(=O)c1cc(S(=O)(=O)N(C)CCO)ccc1-2
  Mtb MbtI inh: -8
> COC(=O)COc1ccc(=O)n(-c2ccccc2)n1
  Mtb MbtI inh: -2

(further entries)
SMILES	Mtb MbtI inh
O=C(O)c1ccc2c(c1)C(=O)N(Cc1ccccc1)C2=O	-7
O=C(CCCCl)NC(c1ccccc1)c1ccccc1	-6
CCN(CC)CCSc1nc(O)c(C2CCCCC2)c(=O)[nH]1	-13
CCCS(=O)(=O)N1CCC(C(=O)NC(C)C)CC1	-7
COC(=O)c1ccc(CN(C)C)o1	-13
COc1ccc(C2C(C(=O)NCCc3ccc(OC)c(OC)c3)c3ccccc3C(=O)N2C)cc1 (stereo not given)	-6
Cn1cc(Br)c(C(=O)O)n1	-6
O=C(c1ccc(F)cc1)c1ccc(N2CCCC2)cc1	-5
Cc1nc2ccc(CCO)cc2s1	-14
